# PKD1 kinase inh – inhibitors of human PKD1 kinase; Q15139; PKD1 kinase fluorescence polarization assay; inhibition, %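 (about 10 µM by stock and volumes)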; hit rate 0.056% among 200,000; AID 797;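 active means inhibition of 50% or more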;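 further: controls were vehicle for no effect and a reference inhibitor for full effect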
# Target sequence (Q15139 whole entry, looked up): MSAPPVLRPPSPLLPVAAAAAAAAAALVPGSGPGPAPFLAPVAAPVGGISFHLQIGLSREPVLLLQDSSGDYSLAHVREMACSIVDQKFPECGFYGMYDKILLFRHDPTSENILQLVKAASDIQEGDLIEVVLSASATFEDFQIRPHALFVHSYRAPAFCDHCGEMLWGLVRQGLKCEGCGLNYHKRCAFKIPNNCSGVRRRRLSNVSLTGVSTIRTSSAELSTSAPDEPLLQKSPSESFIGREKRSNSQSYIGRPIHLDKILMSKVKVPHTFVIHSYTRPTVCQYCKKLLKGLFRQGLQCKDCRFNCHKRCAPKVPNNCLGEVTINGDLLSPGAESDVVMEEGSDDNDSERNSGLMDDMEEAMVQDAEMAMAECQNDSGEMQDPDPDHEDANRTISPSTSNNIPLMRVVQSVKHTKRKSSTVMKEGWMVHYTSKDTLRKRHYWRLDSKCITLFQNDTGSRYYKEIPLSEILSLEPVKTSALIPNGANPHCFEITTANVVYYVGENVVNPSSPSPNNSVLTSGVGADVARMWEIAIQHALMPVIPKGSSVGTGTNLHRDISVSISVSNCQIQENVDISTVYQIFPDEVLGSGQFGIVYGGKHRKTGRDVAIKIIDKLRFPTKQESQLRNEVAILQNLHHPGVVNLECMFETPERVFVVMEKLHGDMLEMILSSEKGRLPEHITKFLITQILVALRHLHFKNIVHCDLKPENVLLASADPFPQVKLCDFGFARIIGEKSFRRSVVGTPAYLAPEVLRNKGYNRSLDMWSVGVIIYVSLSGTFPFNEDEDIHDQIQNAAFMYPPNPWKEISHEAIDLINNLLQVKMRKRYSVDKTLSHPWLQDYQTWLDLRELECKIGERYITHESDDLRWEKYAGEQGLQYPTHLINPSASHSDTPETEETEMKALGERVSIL
# Insulin prom inh – TRM-6 insulin promoter activity inhibition; inhibition, % at 2 µM; AID 1273; TRM-6 cells (human fetal islet line), insulin promoter-eGFP reporter, imaging; reporter expression induced with tamoxifen; hit rate 0.9% among 130,000;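 active means inhibition above the mean plus 3 SD, with well images judged a real hit on visual review, cut at about 60% in these data, passing the limit was not always enough; inconclusive means inhibition over the cutoff but images rejected on review; inactive means inhibition not above the cutoff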
# GALR2 agonist – activates the human galanin receptor 2 | activation, %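 (tested at 5 µM)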 | hit rate 0.48% among 140,000 | GALR2-expressing cells, agonist activation read-out | O43603;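 active means above mean plus 3 SD of all compounds, about 5% in these data, not always enough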;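 further: 0% = vehicle buffer wells and 100% = reference agonist at full effect; tested in CHO reporter cells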
# RGS16-Gao HTS – modulates binding between human RGS16 and Galphao. AID 1441. hit rate 0.38% among 220,000. binding response (% of control), % at 10 µM. bead-based flow cytometry RGS16-Galphao binding, fluorescence; actives lie on both sides. O15492+P09471;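 active means below 25% or above 175%, edge rows of some plates excepted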;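 further: Galphao activated by GDP with aluminum fluoride before binding; 100% = wells without compound and 0% = beads without RGS; some results beyond the cut were filed as inactive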
# HSV replic up – HSV replication enhancement. HSV replication augmentation in cells, fold increase. maximum fold increase. hit rate 0.005% among 220,000;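 active means peak rise of 1.5-fold or more in the series; inconclusive means self-fluorescent or not available for retest; tested in PC3 cells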;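 further: first round at 10 µM; read as green reporter fluorescence; hits show the peak of a series up to 25 µM; 1 = signal of infected wells without compound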
# Insulin prom inh cell count – second read-out of Insulin prom inh, no call of its own (marks repeat the call); normalized cell count, %; measured here: cell count, toxicity; reference of the scale not given here;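 cells exposed to compound for 48 h; stained nuclei by imaging scaled within each plate; lower means fewer cells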
# HSV replic up primary fold – also measured in HSV replic up; calls as there; fold increase; compound at 10 µM; measured here: primary screen fold increase 10 uM; tested in PC3 cells;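 GFP signal in the first replicate; 1 = infected wells without compound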
# Starred values were filed as active, the others as inactive; i = inactive; ? = inconclusive; · = not tested or not shown.
smiles	PKD1 kinase inh	Insulin prom inh	Insulin prom inh cell count	GALR2 agonist	RGS16-Gao HTS	HSV replic up	HSV replic up primary fold
O=C(NCC(=O)N(Cc1ccco1)C(C(=O)NC1CCCC1)c1cccnc1)c1ccco1 (centres undefined)	-2	-327	42	-2.1	114	i	1.2
CCCCCCn1c(NCC)nc2c1c(=O)n(C)c(=O)n2C	-2	-46	95	-1.9	81	i	0.92
Cc1ccc(/C=N/NC(=O)c2cccnc2)s1	·	·	·	·	102	i	0.87
Cn1cc(C(=O)c2ccc(F)cc2)cc1-c1nc2ccccc2n1C	2	-20	146	-0.9	104	i	0.89
CCCCCCCCNC(=O)/C(C#N)=C/c1ccc(SC)cc1	-8	7	117	-1.4	104	i	1
COc1ccc(-c2nc(=S)c3ccc4ccccc4c3[nH]2)cc1	-2	·	·	·	94	i	0.89
O=C1CN(C(=O)CC2c3ccccc3-c3ccccc32)CC(=O)N1	-6	-58	69	-1.7	98	i	0.88
Cc1cc(C)n(-c2nc(-c3cccc(Cl)c3)cs2)n1	10	-29	105	-0.9	108	i	1.1
Cc1ccc(S(=O)(=O)ON2C(=O)c3ccccc3C2=O)c(C)c1	-5	9	27	-1.5	93	i	1
c1ccc2c(NCCCN3CCOCC3)c3ccccc3nc2c1	-4	·	·	·	105	i	0.67
CC(C)(C)/C=N/NC(=O)C1CC1	·	·	·	·	101	i	1
O=C(CSc1nc2scc(-c3ccccc3)c2c(=O)[nH]1)NC1CCCCC1	0	·	·	·	99	i	1.2
Nc1nonc1C(=O)NCCNCc1ccccc1	-3	·	·	-1.1	106	i	0.94
N#CC1(c2ccccc2)CCC(=O)N1Cc1ccccc1 (centres undefined)	·	·	·	·	101	i	0.93
O=C(CN(CCc1ccccc1)C(=O)CN1C(=O)COc2ccccc21)NCc1ccco1	-8	-39	138	-1.5	95	i	0.9
O=c1[nH]c2ccccc2n2c(-c3ccncc3)nnc12	-9	·	·	-3.3	105	i	1
CCCCNC(=S)N/N=C/c1sccc1C	-2	-21	82	·	102	i	0.89
CCOc1ccc(CCNC(=O)CSc2cc(=O)n(CC)c3ccccc23)cc1OCC	-7	-62	151	-1.7	99	i	0.96
CCN(CC)CCCN(Cc1cc2cc(OC)ccc2[nH]c1=O)C(=O)Nc1ccc(F)cc1	2	24	80	-1.6	103	·	·
CCC(C)NC(=O)Cn1cnc2sc(C)c(S(=O)(=O)N3CCN(c4ncccn4)CC3)c2c1=O (centres undefined)	1	36	107	·	105	i	1
CCOC(=O)c1sc2nc(CC(=O)OC)nc(NCCN(CC)CC)c2c1C	-8	-45	161	0.5	97	i	0.95
COc1cccc(NC(=S)N(Cc2ccco2)C(C)c2ccco2)c1 (centres undefined)	1	-10	103	0.5	103	i	0.93
CC1=CC(=O)c2ccccc2C1=O	-9	50	81	-1.8	95	?	·
COc1ccc(C2Nc3ccccc3C(=O)N2c2ccccc2)cc1CSc1ccccn1 (centres undefined)	-3	-65	150	-1.2	68	i	0.91
COc1ccc(-c2noc(CSc3nc4sc(C)c(C)c4c(=O)n3-c3ccccc3)n2)cc1	0	·	·	-2.1	110	i	0.97
Clc1ccc(OCc2nn3c(-c4ccco4)nnc3s2)c(Cl)c1	13	·	·	-0.8	117	i	0.96
COCc1ccc(CN2CCCC(CCC(=O)NCc3ccc(C)o3)C2)o1 (centres undefined)	0	·	·	·	97	i	1.1
COc1ccc2ccccc2c1/C=N/N1C(=O)CSC1=S	-3	-89	127	·	110	i	1.1
O=C(Nc1cccnc1)c1cc([N+](=O)[O-])ccc1Cl	·	·	·	·	113	i	0.94
CCOC(=O)C1=C(CSc2nccn2C)NC(=O)NC1c1ccc(OC)cc1 (centres undefined)	-4	-53	70	0.5	204	i	0.83
COc1ccccc1-c1cc(C(=O)N/N=C/c2sccc2C)c2ccccc2n1	-3	·	·	-1.5	101	i	0.89
Cc1csc2ncnc(NC3CCN(Cc4ccccc4)CC3)c12	·	·	·	·	93	i	0.94
COc1cccc(OC)c1C1=NC(C)(C)CO1	·	·	·	·	105	i	1
CCCN(CCC)C(=O)c1cc2c(=O)[nH]c3ccc(C)cc3c2s1	-9	6	111	·	106	i	0.7
O=C(CN1CCN(C(c2ccccc2)c2ccccc2)CC1)Nc1ccc(N2CCOCC2)cc1	1	·	·	·	103	i	0.92
COc1ccc2nc(NC(=O)CSc3nnc4n3C(C)(C)Cc3ccccc3-4)sc2c1	-10	27	111	-0.7	96	i	0.77
Cc1sc2nc(-c3cccnc3)nc(Cl)c2c1-c1ccccc1	-3	-11	106	0.5	98	i	1
CCC1(C)Cc2ccccc2-c2nc(NCCO)n(-c3ccccc3)c(=O)c21 (centres undefined)	2	-200	99	-2.3	108	i	1
COC(=O)COc1ccc2cccc(-n3cnnn3)c2c1	-4	0	73	·	111	i	0.93
Cc1cc(C)c(NC(=O)C(=O)NCc2ccco2)c(C)c1	2	-38	120	·	105	i	0.97
O=C(CCc1nnc(-c2ccc3c(c2)OCO3)o1)NC(c1cccnc1)C(F)(F)F (centres undefined)	0	-25	105	·	111	i	1
CCCn1nnc(NC(=O)/C=C/c2ccccc2)n1	1	·	·	·	101	i	1
N[C@@H](Cc1ccc(O)cc1)c1nnc([C@H](CO)NC(=O)C2CCNCC2)o1	1	·	·	·	99	i	0.85
CCN1C(=O)CC(Sc2ccccc2C(=O)O)C1=O (centres undefined)	3	0	85	-2.1	104	i	0.77
Cc1cc(C(=O)N/N=C/c2ccc[nH]2)no1	3	23	101	-0.1	27	i	0.92
Cc1nc(C#N)c(NCc2ccc3c(c2)OCO3)o1	-3	20	129	-1.5	84	i	0.91
Brc1ccc2[nH]c3c(N4CCc5ccccc5C4)ncnc3c2c1	-3	-36	28	-1.7	99	i	0.85
O=C(Nc1ccc2ncccc2c1)c1ccccc1Cl	-5	-5	120	·	111	i	0.92
COC(=O)c1ccc(NC(=O)Nc2ccc(OC)cc2)cc1	3	-21	83	·	96	i	1.1
CCOC(=O)c1c(C)n(C)c2ccc(OC(=O)c3ccco3)cc12	-3	-8	148	0.5	101	i	0.94

# Structures listed so far with a halogen:
smiles	PKD1 kinase inh	Insulin prom inh	Insulin prom inh cell count	GALR2 agonist	RGS16-Gao HTS	HSV replic up	HSV replic up primary fold
Cn1cc(C(=O)c2ccc(F)cc2)cc1-c1nc2ccccc2n1C	2	-20	146	-0.9	104	i	0.89
Cc1cc(C)n(-c2nc(-c3cccc(Cl)c3)cs2)n1	10	-29	105	-0.9	108	i	1.1
CCN(CC)CCCN(Cc1cc2cc(OC)ccc2[nH]c1=O)C(=O)Nc1ccc(F)cc1	2	24	80	-1.6	103	·	·
Clc1ccc(OCc2nn3c(-c4ccco4)nnc3s2)c(Cl)c1	13	·	·	-0.8	117	i	0.96
O=C(Nc1cccnc1)c1cc([N+](=O)[O-])ccc1Cl	·	·	·	·	113	i	0.94
Cc1sc2nc(-c3cccnc3)nc(Cl)c2c1-c1ccccc1	-3	-11	106	0.5	98	i	1
O=C(CCc1nnc(-c2ccc3c(c2)OCO3)o1)NC(c1cccnc1)C(F)(F)F (centres undefined)	0	-25	105	·	111	i	1
Brc1ccc2[nH]c3c(N4CCc5ccccc5C4)ncnc3c2c1	-3	-36	28	-1.7	99	i	0.85
O=C(Nc1ccc2ncccc2c1)c1ccccc1Cl	-5	-5	120	·	111	i	0.92

# (listing goes on)
smiles	PKD1 kinase inh	Insulin prom inh	Insulin prom inh cell count	GALR2 agonist	RGS16-Gao HTS	HSV replic up	HSV replic up primary fold
CC1CN(S(=O)(=O)c2ccc(C(=O)Nc3nc(-c4cc5ccccc5o4)cs3)cc2)CC(C)O1 (centres undefined)	-2	·	·	-0.2	101	i	0.61
CCCn1c(N2CCN(C(=O)NCc3ccccc3)CC2)nc2ccccc21	·	·	·	·	97	i	0.9
CC(=O)NC(CSC(CC(=O)c1ccco1)c1ccc(C)cc1)C(=O)O (centres undefined)	-3	·	·	·	104	i	0.88
CC(C)(C)n1nnnc1C(c1cc2cc3c(cc2[nH]c1=O)OCO3)N1CCN(c2ccccc2)CC1 (centres undefined)	-4	·	·	-3.3	106	i	1.1
OCCC1CN(Cc2cccc(C(F)(F)F)c2)CCN1Cc1ccccc1 (centres undefined)	8	·	·	·	100	i	0.91
O=C(CCCC(=O)N(CC(=O)NC1CCCC1)C1CCCC1)Nc1ccccn1	1	-23	105	-2.0	104	i	0.94
OCCNc1nc(Nc2ccc(O)cc2)nc2ccccc12	·	·	·	·	93	i	0.7
COc1cc(-c2cc(OC)c3c(C)oc(C)c3c(=O)c2)ccc1O	-11	57	131	2.0	99	·	·
Cc1ccc(C)c(NC(=O)C(=O)NCCc2c[nH]c3ccccc23)c1	-8	-46	115	·	104	·	·
Cc1ccc[n+](/C(C(=S)NCc2ccco2)=C(/[O-])c2ccccc2Cl)c1	-5	-287	111	-1.2	100	i	1
COc1ccc(NCc2nnc(SCC(=O)Nc3cc(C)cc(C)c3)o2)cc1	-10	8	65	-0.4	98	i	0.78
O=Cc1c(N2CCOCC2)nc2ccccn2c1=O	4	·	·	·	101	i	0.92
N#C/C(=N\Nc1cccc2ccccc12)c1nnc2n1CCCCC2	-2	·	·	-1.0	88	i	1.1
CCc1ccc(NC(=O)NCCN2CCc3ccccc3C2)cc1	-9	-9	131	-1.7	100	i	0.87
COc1ccc(C(=O)CN2C(=O)COc3ccccc32)cc1	1	·	·	·	98	i	1
CCc1cccc(NC(=S)N(CCOC)C(C)c2ccco2)c1 (centres undefined)	·	·	·	·	102	i	0.95
Cc1ccc(N2C(=O)c3ccc(C(=O)N4CCN(c5ccccc5F)CC4)cc3C2=O)cc1	3	·	·	-1.4	103	i	0.76
COCCNC(=O)c1ccc(NS(C)(=O)=O)cc1	-9	3	111	-1.8	116	i	0.98
CC(CN1CCCCC1)OC(=O)c1ccc(Cl)cc1 (centres undefined)	4	12	99	-1.0	104	i	0.97
CCc1nc(C)cn1S(=O)(=O)c1ccc([N+](=O)[O-])cc1	-3	·	·	·	100	i	1
CCc1ccc(C2C3=C(CC(C)(C)CC3=O)OC3=C2C(=O)CC(C)(C)C3)cc1	-4	-61	117	-1.3	106	i	1
CSc1nc(-c2ccc(Cl)cc2)nn1S(=O)(=O)c1ccccc1	1	74	162	-2.4	107	i	1
CCn1c(=S)[nH]c2ccccc21	-6	-271	132	-2.6	101	i	1.1
C=C(Br)Cn1c(CC)nc2ccccc21	-2	37	91	-4.4	65	i	0.88
O=C(NCc1ccco1)c1cc2nc(-c3ccc4c(c3)OCO4)cc(C(F)(F)F)n2n1	3	18	57	2.5	97	i	1.1
CCc1c(C)sc(NC(=S)Nc2nc(C)cc(C)n2)c1C(=O)OC	-5	21	115	·	98	i	1
O=C(CCC1CCCCC1)N1CCN(Cc2ccc3c(c2)OCO3)CC1	-12	25	123	-2.8	97	i	0.96
CSc1cccc(NC(=O)c2ccco2)c1	2	-42	106	-0.6	101	i	0.94
CCCNC(=O)COC(=O)c1cccnc1Nc1ccccc1F	2	-19	144	-0.1	108	i	1.1
COc1cc2c3c(c1)c(N=NC(N)=S)c(O)n3C(C)(C)C=C2C	·	·	·	·	106	i	0.78
COc1ccc(C2CC(=O)N(CC(=O)NCC3CCCO3)c3ccccc3S2)cc1 (centres undefined)	2	-21	107	·	102	i	0.97
Cc1cnc(NC(=O)CSc2nnc(Cc3ccccc3)o2)s1	-7	·	·	-1.8	101	i	1.1
N#Cc1c(-c2ccccc2)cc(-c2ccccc2)nc1SCc1nnc(-c2ccccc2)o1	-2	-25	98	-2.7	91	i	1
CC(C)C[C@H](NC(=O)Nc1ccc2c(c1)OCCO2)C(=O)O	·	·	·	·	111	i	1.2
